# MLL AF4-AF9 inh: MLL-AF4/AF9 protein interaction inhibition; AlphaScreen, biotin-AF4 peptide binding to FLAG-AF9; inhibition, % at 10 µM; actives 0.47% (n = 350,000); AID 651704;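 active means every replicate reaching a set inhibition limit, whatever the replicate mean, cut at about 25% in these data; inconclusive means mean inhibition reaches that limit but some replicates miss it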;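 further: 0% = plate neutral control median and 100% = total signal loss; the record names both 10 and 1 µM as test concentration; the first replicate is given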
# Target sequence (P42568 whole entry, looked up): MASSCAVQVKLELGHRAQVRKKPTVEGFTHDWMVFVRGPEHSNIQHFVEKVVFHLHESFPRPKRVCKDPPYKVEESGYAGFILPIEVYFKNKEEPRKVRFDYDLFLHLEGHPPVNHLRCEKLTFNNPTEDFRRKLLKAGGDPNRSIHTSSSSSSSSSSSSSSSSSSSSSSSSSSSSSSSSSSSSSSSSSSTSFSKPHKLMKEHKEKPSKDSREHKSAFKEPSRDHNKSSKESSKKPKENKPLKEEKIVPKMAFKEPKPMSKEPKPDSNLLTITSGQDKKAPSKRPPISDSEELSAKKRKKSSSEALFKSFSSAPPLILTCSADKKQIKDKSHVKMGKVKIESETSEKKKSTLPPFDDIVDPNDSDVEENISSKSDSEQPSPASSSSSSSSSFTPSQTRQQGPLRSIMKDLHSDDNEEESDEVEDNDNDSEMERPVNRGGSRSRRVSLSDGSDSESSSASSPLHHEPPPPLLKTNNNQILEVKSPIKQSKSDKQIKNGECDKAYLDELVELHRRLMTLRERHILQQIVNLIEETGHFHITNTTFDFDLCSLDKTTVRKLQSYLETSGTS
# Beta apoptosis: blocks beta cell apoptosis; actives 0.8% (n = 300,000); INS-1E cytokine-induced death, ATP luminescence, 48 h; percent of positive-control rescue, neutral wells zero; AID 435005; protection from apoptosis, % (test concentration not listed);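 active means all replicates at 75% or more, or half of them and the mean; inconclusive means half reach 75% but not the mean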;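 further: 0% = cytokine-treated negative control wells and 100% = positive control rescue; higher means more ATP so stronger rescue from cytokine killing; wells of about 40 µL received 100 nL stock; the first replicate is given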
# RanGTP-Impb inh: disruptors of Ran-importin-beta complex formation – biochemical, FRET, CFP-Ran, YFP-importin-beta, homogeneous, primary screen; cell-free CFP-Ran/YFP-importin-beta FRET ratio; actives 1.1% (n = 300,000); inhibition, % (concentration not given with the values); AID 2216;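 active means most replicates above 15%; inconclusive means exactly half above 15%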;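 further: 0% = DMSO wells and 100% = Ran loaded with GDP instead of GTP; wells of about 40 µL received 100 nL stock; the first replicate is given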
# Calb FLC: C. albicans growth modulation with fluconazole. actives 0.57% (n = 300,000). growth inhibition, % (no concentration beside the values). C. albicans CaCi-2 (fluconazole-resistant clinical isolate) + fluconazole, Alamar Blue growth, 48 h;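 active means most replicates above 75%; inconclusive means exactly half above 75%; inactive means most below 75%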;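 further: all wells also contain fluconazole at 8 µg/ml as a sub-toxic cotreatment; 0% = median of DMSO wells and 100% = median of geldanamycin control wells; wells of about 8 µL received 7.5 nL stock; the first replicate is given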
# Ecoli rRNA inh: selective bacterial rRNA inhibition in E. coli; E. coli WT GFP vs humanized-ribosome RFP mutants, fluorescence, 24 h; stronger effect = lower value; DMSO median 0, no signal -100; GFP signal change (wild-type ribosome), % (no concentration beside the values); actives 1.6% (n = 350,000);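 active means significant combined selectivity score with lowered wild-type GFP, culture density cut under 30%, mutant RFP and density less affected; inactive means any of these conditions unmet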; further: one replicate is shown; some compounds called inactive have numbers as strong as hits
# Bfl-1 A1 inh: inhibitors of the anti-apoptotic protein A1, read as caspase activation. MEF A1-2A-BIM cells, Caspase-Glo 3/7 luminescence, 3 h; percent of clofoctol response, vehicle zero. caspase activation, % (concentration not given with the values). actives 0.066% (n = 330,000);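 active means over half of replicate activation scores above 10%, or exactly half above 10 with the replicate mean above 10; inconclusive means replicate mean below 10 yet half the replicates above 10; inactive means over half of replicates below 10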;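 further: wells of about 30 µL received 50 nL stock; many hits fall short of the cut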
# T cruzi repl: blocks replication of Trypanosoma cruzi. T. cruzi beta-gal in NIH3T3, luminescence, 90 h. inhibition, % (no concentration beside the values). actives 1.4% (n = 300,000). AID 1885;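 active means mean inhibition across valid replicates above about 55%, limit read from the data; inconclusive means mean below that limit but half or more replicates reach it; inactive means mean below it, under half of replicates reach it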;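 further: signal also drops with host cell toxicity which is not excluded here; 0% = plate median of DMSO wells and 100% = zero luminescence signal; higher percent means less beta-gal luminescence so fewer parasites; stock transfer was 50 nL into about 50 µL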
# Vif A3G: inhibitors of Vif binding to APOBEC3G peptide, primary screen, biochemical, TR-FRET, GST-Vif 1-94, biotin-A3G peptide, dose response retest (AID 1117319) | TR-FRET GST-Vif / biotin-A3G peptide binding; higher % means a stronger effect; test concentration not given here; strong numbers were not always called active | inhibition, %, or IC50 in µM where a hit was titrated | actives 0.57% (n = 260,000);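 active means above the screen mean plus three standard deviations and confirmed in dose response; inconclusive means results disagree or hit not tested in dose response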;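 further: Vif residues 1-94 fused to GST binding biotinylated APOBEC3G peptide 110-148; 0% = full assay without inhibitor and 100% = GST in place of GST-Vif; retest series ran down from 100 µM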
# Ecoli rRNA inh OD600: further read-out of Ecoli rRNA inh, marked with its call; OD600 change, %; measured here: OD600 growth;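 optical density of the mix in the first replicate; 0 = DMSO median and -100 = no signal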
# Ecoli rRNA inh RFP: second read-out of Ecoli rRNA inh, no call of its own (marks repeat the call); RFP signal change, %; measured here: RFP humanized mutant strains;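 first replicate; 0 = DMSO median and -100 = no signal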
# An asterisk follows results filed as active; ? = inconclusive; nt = no result given; & = joins results of further samples. A portion of the library (hit frequency here may not be typical).
# Order of results – MLL AF4-AF9 inh, Beta apoptosis, RanGTP-Impb inh, Calb FLC, Ecoli rRNA inh, Ecoli rRNA inh OD600, Ecoli rRNA inh RFP, Bfl-1 A1 inh, T cruzi repl, Vif A3G
Cc1nn(C(C)C)c(C)c1CN1CCCC(CCC(=O)NCc2ccccc2F)C1 (stereo unspecified)
  -0.1, -2, -3.9, -17, 1, 5, 2.1, 0.2, 58*, 3%
O=C(Nc1ccc(F)cc1F)c1csc(-c2ccccc2)n1
  0.6, nt, 2.2, 53, 3, -6, -1.2, -0.2, -8, -26%
Cc1cc(C)cc(NC(=O)CCNC(=O)c2ccc([N+](=O)[O-])cc2)c1
  -3.7, 4, -4.1, 6, -1, 14, -2.5, 0.3, 1, -2%
CCC(=O)NCCc1nc2cc(NC(=O)c3cccs3)ccc2n1C
  -0.7, 1, -3.9, 5, 5, 2, -8.5, -1.2, -1, -6%
Cc1ccc(C(=O)C2=C(O)C(=O)N(CCCn3ccnc3)C2c2ccc(OC(C)C)cc2)o1 (stereo unspecified)
  nt, -5, -4.8, 9, nt, nt, nt, -0.4, 0, -8%&-4%
O=C(O)c1ccc(CSc2nc(-c3ccccc3)cc(C(F)(F)F)n2)cc1
  nt, -9, -2.0, 35, nt, nt, nt, 0.2, 5, 1%
O=C(Nc1ccccc1)c1ccccc1OCc1ccc(F)cc1
  -1.5, 3, ?, -2, 9, -1, 8.4, 1.1, 9, nt
CC(C)Oc1ccc(S(=O)(=O)N2CCOCC2)cc1NC(=O)CC1CCCC1
  4.6, -9, nt, nt, 5, 6, -0.5, -1.0, nt, 0%
CCC(C)[C@H](NC(=O)[C@@H]1CSC2c3ccccc3C(=O)N21)C(=O)N1CCCCC1 (stereo partly specified)
  -0.3, 1, 2.7, 0, 8, 8, 1.1, -0.3, 11, -4%
COc1cccc(/C=N/n2c(=O)[nH]c3ccccc32)c1OC
  nt, nt, 4.2, 70, nt, nt, nt, -1.5, 8, -1%
COc1ccc(NC(=O)CSCc2ccc([N+](=O)[O-])cc2)cc1OC
  0.8, 4, 0.3, 8, 1, -1, 1.5, 0.2, -5, -2%
CC(=O)Nc1ccc(-c2csc(Nc3cccc(C)n3)n2)cc1
  -8.5, nt, 5.3, 15, -29, -2, 19, nt, -5, -2%
OC(CNCc1ccc2c(c1)OCO2)COc1ccc(F)cc1 (stereo unspecified)
  -3.7, 3, ?, 1, 3, -5, 6.2, 0.1, 6, -6%
Cc1cc(C)nc(SCC(=O)NNC(=O)c2ccccc2C)n1
  -21, -3, 1.0, 1, 5, 0, -8.9, 0.2, 0, nt
O=C(NC(=S)Nc1ccc(O)cc1)c1ccccc1Cl
  1.4, -10, 0.2, 37, -31, -41, -9.1, 1.4, -9, -11%
COc1ccc(N(C(=O)c2ccco2)C(C(=O)NC2CCCC2)c2cccnc2)c(OC)c1 (stereo unspecified)
  -11, -7, 0.6, 7, 5, 15, 1.9, -0.3, 6, 1%
O=C1CN(C(=O)COC(=O)/C=C/c2ccco2)c2ccccc2N1
  0.9, -1, ?, 15, 7, 3, 7.1, -0.6, -7, 24%
COc1ccc(C(C(=O)NC2CCCC2)N(CC2CCCO2)C(=O)Cn2nnc(-c3ccc(C)o3)n2)cc1 (stereo unspecified)
  -0.3, -4, 1.6, -1, 12, 9, 6.5, 0.8, 7, 15%
Cc1cc(/C=C(\C#N)C(=O)O)c(C)n1C1CC1
  nt, 1, 9.9, 1, nt, nt, nt, -0.5, 17, nt
CCSc1nnc(NC(=O)CSc2nc3c(c(=O)n2-c2ccccc2OC)SCC3)s1
  nt, 5, 0.9, 61, nt, nt, nt, 0.5, 13, -7%&3%
OC(COc1ccc2ccccc2c1)CN1CCN(c2ccc(F)cc2)CC1 (stereo unspecified)
  7.1, -6, -1.0, -5, 4, 9, 18, -0.3, 4, -9%
Cc1ccccc1C(=O)NNC(=O)CSc1nc(-c2ccccc2)cc(=O)[nH]1
  -0.5, -4, ?, -7, 17, 13, -0.4, -1.0, 0, -6%
O=C(O)CSCC(=O)c1ccccc1
  1.8, -2, 2.6, 8, 10, 5, 3.2, -0.6, -25, -4%
COc1cc([N+](=O)[O-])cc(/C=N/NC(=O)CC#N)c1O
  nt, nt, 1.7, 61, nt, nt, nt, nt, -4, ?
COc1cc(C2NCCc3c2[nH]c2ccccc32)ccc1OC(C)C (stereo unspecified)
  3.2, 1, 0.9, -11, 2, 6, -0.6, 0.7, 16, 6%
COc1cc(/C=N/N=C2/NC(=O)C(CC(=O)O)S2)ccc1OCc1ccc(Cl)cc1 (stereo unspecified)
  nt, -10, 7.2, -7, nt, nt, nt, 0.0, -3, nt
COC(=O)C1CCN(C(=O)c2c(-c3ccccc3Cl)noc2C)CC1
  nt, -1, 8.6, -1, nt, nt, nt, -0.3, -3, 3%
COC(=O)c1ccccc1NC(=O)CN1CCOCC1
  nt, -6, -3.8, -17, nt, nt, nt, 0.1, -4, 4%
COc1ccc2oc(C)c(C(=O)c3ccccc3)c2c1
  -1.3, -7, 3.3, -7, -30*, -8.8*, -7.5*, 0.2, 13, nt
Cc1ccccc1N1C(=O)CC(Sc2nnc(-c3ccccc3)o2)C1=O (stereo unspecified)
  nt, -28, -4.7, -6, nt, nt, nt, 2.1, -6, -11%&-8%

# Look-ups from above.
# `COC(=O)C1CCN(C(=O)c2c(-c3ccccc3Cl)noc2C)CC1` in Calb FLC = -1
# `O=C(Nc1ccc(F)cc1F)c1csc(-c2ccccc2)n1` in Ecoli rRNA inh RFP = -1.2

# Carrying on.
# Order of results – MLL AF4-AF9 inh, Beta apoptosis, RanGTP-Impb inh, Calb FLC, Ecoli rRNA inh, Ecoli rRNA inh OD600, Ecoli rRNA inh RFP, Bfl-1 A1 inh, T cruzi repl, Vif A3G
O=C(Nc1ccc([N+](=O)[O-])cc1)Nc1ccc2c(c1)OCCO2
  1.4, 10, -1.7, ?, 11, 10, 1.8, -1.4, 20, -2%
O=[N+]([O-])c1ccccc1CN1CCN(S(=O)(=O)Cc2ccccc2)CC1
  -12, -4, 4.1, 2, -2, 2, -0.5, -1.3, 15, 3%
CCN(c1cccc(C)c1)S(=O)(=O)c1ccc2c3c(cccc13)C(=O)N2
  nt, -5, -0.8, 21, nt, nt, nt, 0.8, 5, -2%
CCOc1ccc(NC(=O)CN2CCCC2c2cccs2)cc1S(=O)(=O)N1CCCCC1 (stereo unspecified)
  3.1, 6, nt, nt, -27, -34, 1.9, -0.5, nt, -10%
O=C(Nc1ccc2c(c1)OCO2)c1c(F)c(F)c(F)c(F)c1F
  nt, 0, nt, 6, nt, nt, nt, 0.2, -2, 25%
O=C(CN(c1ccc2c(c1)OCCO2)S(=O)(=O)c1ccccc1)N1CCN(Cc2ccccc2)CC1
  0.5, -2, 4.4, -7, -14, -17, 6.4, 0.5, 4, 2%
COc1cc(Cl)c(S(=O)(=O)N2CCCC2)cc1Cl
  0.7, -2, 0.9, 3, -12, -9, -1.1, 0.5, -4, -1%
COc1ccc(C(O)P(=O)(OCC(C)C)OCC(C)C)c(OC)c1 (stereo unspecified)
  -0.2, -1, -0.7, 26, nt, nt, nt, 1.4, 1, nt
CCOC(=O)c1ccoc1CSCc1ccc(C(=O)OC)o1
  nt, -3, 0.0, 2, nt, nt, nt, -0.5, -4, 21%
Cc1n[nH]c(C)c1CCCCOc1ccccc1F
  3.2, -10, 2.3, -12, -44, -50, -16, 0.6, -4, 3%
CCc1cccc(NC(=S)Nc2ccc(CN3CCOCC3)cc2)c1
  4.2, 1, 4.4, -7, 4, -7, -9.8, 0.0, -8, -15%
CS(=O)(=O)N1CCN(c2ccc(NC(=S)NC(=O)c3cccs3)cc2)CC1
  -4.9, 8, -0.4, 0, 5, 8, -2.5, 0.4, -8, -1%
COc1ccc(CN(C)C(=O)/C=C/c2ccc(S(=O)(=O)N3CCCCCC3)cc2)cc1
  -3.4, 9, nt, nt, -11, -11, 0.8, 0.4, nt, 3%
O=c1[nH]c(NCc2ccccc2)nc2c1CCCC2
  nt, 4, 5.8, -1, nt, nt, nt, -0.5, -2, 6%
Cc1cc(C)n2nc(/C(C#N)=C/c3ccccn3)c(C#N)c2n1
  -1.0, -2, 5.2, -10, 13, 9, 2.5, 0.5, -42, -9%
CCCCSCCCNC(=O)Nc1ccc(CC)cc1
  4.0, -7, -0.1, -2, -11, -31, 3.2, 0.2, 2, -5%
Cc1ccc2[nH]c3c(c2c1)CN(C(=O)CN1c2ccc(F)cc2CCC1C)CC3 (stereo unspecified)
  nt, -5, ?, 16, nt, nt, nt, 0.1, 28, 9%
CN(c1ccc(C(=O)N2CCN(Cc3ccccc3)CC2)cc1)S(=O)(=O)c1ccccc1
  0.9, 1, -2.2, -4, 1, -2, 3.1, -0.1, 8, nt
O=C(CSc1ccccn1)N/N=C/c1cccc([N+](=O)[O-])c1
  6.4, -5, -3.6, -3, 5, 8, -3.0, 0.6, 4, nt
COc1ccccc1OC(C)C(=O)NNC(=S)NC1CCCC1 (stereo unspecified)
  -1.3, -5, 0.4, -15, 4, -2, -4.2, 1.5, 2, 9%
COc1ccc(NC(=O)COC(=O)c2cc(SC)ccc2Cl)c(OC)c1
  nt, -3, 0.4, 6, nt, nt, nt, 0.3, -14, nt
Nc1ccc(O)cc1
  nt, 3, -3.1, nt, nt, nt, nt, 1.6, 2, nt
Cc1ccc(NC(=O)C2CC(=O)n3ncnc3N2)cc1 (stereo unspecified)
  3.4, -6, 1.2, -9, 28, 18, -5.6, -0.2, -10, -2%
CCCS(=O)(=O)c1nc(S(=O)(=O)c2ccc(C)cc2)c(NCCCN(C)C)s1
  0.7, -5, ?, -31, 10, 4, -2.5, -0.7, 36, 4%
CCS(=O)(=O)c1ccc2c(c1)NC(=O)C(CCO)O2 (stereo unspecified)
  -0.4, -1, -2.7, 3, 7, -2, 0.0, 0.4, -12, -7%
O=C(COC(=O)c1ccccn1)Nc1cccc(Cl)c1
  nt, 0, -0.7, 1, nt, nt, nt, 1.7, -15, 9%

# Gathered by group: the entries above containing a thiophene ring, fused or not.
# Order of results – MLL AF4-AF9 inh, Beta apoptosis, RanGTP-Impb inh, Calb FLC, Ecoli rRNA inh, Ecoli rRNA inh OD600, Ecoli rRNA inh RFP, Bfl-1 A1 inh, T cruzi repl, Vif A3G
CCC(=O)NCCc1nc2cc(NC(=O)c3cccs3)ccc2n1C
  -0.7, 1, -3.9, 5, 5, 2, -8.5, -1.2, -1, -6%
CCOc1ccc(NC(=O)CN2CCCC2c2cccs2)cc1S(=O)(=O)N1CCCCC1 (stereo unspecified)
  3.1, 6, nt, nt, -27, -34, 1.9, -0.5, nt, -10%
CS(=O)(=O)N1CCN(c2ccc(NC(=S)NC(=O)c3cccs3)cc2)CC1
  -4.9, 8, -0.4, 0, 5, 8, -2.5, 0.4, -8, -1%
